# Yeast UUG start = modulators of yeast start codon fidelity, primary screen, whole organism, S. cerevisiae, single point, plate reader; S. cerevisiae UUG-firefly luciferase reporter, luminescence/redox ratio; activity score, % at 18.7 µM; 350,000 tested, 0.13% active;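 active = replicate mean at a twofold rise or more, about +100% in these data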;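 note: firefly luciferase made from a UUG start codon reports start codon fidelity; reporter light over untreated wells divided by growth signal over untreated wells; some hits fall short of that in this replicate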
# MT1-MMP act inh = blockers of MT1-MMP proenzyme processing, primary screen, HT1080 RFP-PRO-GFP cells, GFP/RFP fluorescence. Matrix metalloproteinase-14 (Homo sapiens), P50281. GFP/RFP ratio fluorescence, overnight; percent of plate control window, DMSO zero. GFP/RFP ratio change, % at 20 µM. 360,000 tested, 0.061% active;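 active = GFP/RFP ratio change of at least 30% with cell ATP level not reduced by more than half and red fluorescence within 50% of control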; note: strong numbers were not always called active
#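 Read-out: GFP/RFP fluorescence ratio; Test system: RFP-PRO-GFP reporter HT1080 cells; Compound dosing: single-point 20 µM compound, 1% DMSO; Times: overnight compound exposure at 37 °C.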
# MT1-MMP act inh RFP = also measured in MT1-MMP act inh; calls as there; RFP signal change, %; measured here: RFP expression control read;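 0 = vehicle wells; hits needed this value within 50% of zero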
# * = called active by the depositor; & = joins results of further samples. The list is partial, so the mix of outcomes need not match the whole.
# Every second line gives: Yeast UUG start | MT1-MMP act inh | MT1-MMP act inh RFP
1	Cc1ccc(Cc2c(-c3ccc(C)cc3)nc3c(C)cc(Br)cn23)cc1
  -7 | -7 | -1
2	O=C(CCCNC(=O)c1ccc(Cl)cc1)Nc1cccc(S(=O)(=O)N2CCCCC2)c1
  -10 | 0 | -2
3	COc1cc(OC)c(N(C)S(=O)(=O)c2cccc(C(=O)Nc3nc(C)cs3)c2)cc1Cl
  -20 | -8 | -10
4	COc1ccc(Cc2nc3c([nH]2)c(=O)n(C)c(=O)n3C)cc1OC
  -6 | 0 | -1
5	Cc1c(C(=O)N2CCN(S(=O)(=O)c3ccccc3)CC2)oc2ccc(Br)cc12
  -2 | -4 | -4
6	COC(=O)[C@]1(C)N[C@H](CN(C)S(=O)(=O)c2ccc(-c3ccccc3)cc2)[C@@H]2C(=O)N(C)C(=O)[C@@H]21
  -25 | -2 | -2
7	Cc1n[nH]c(=O)c2c(NC(=O)CSc3cc(Cl)ccc3Cl)oc(C)c12
  -10 | 0 | 1
8	O=C1[C@H]2[C@@H](c3ccc(C(F)(F)F)cc3)N[C@]3(CCCN(Cc4ccc(Cl)cc4)C3=O)[C@H]2C(=O)N1Cc1ccccc1
  -8 | -2 | -21
9	Cc1cc(NC(=O)C(C)SCC(=O)Nc2cccc(S(=O)(=O)N3CCCCCC3)c2)no1 (stereo unspecified)
  -7 | 1 | -7
10	CCNC(=O)C1(C)CCCN(CCOc2ccc(Cl)cc2)C1 (stereo unspecified)
  -17 | -1 | 4

# Whole records as entered above:
# O=C1[C@H]2[C@@H](c3ccc(C(F)(F)F)cc3)N[C@]3(CCCN(Cc4ccc(Cl)cc4)C3=O)[C@H]2C(=O)N1Cc1ccccc1 is entered as Yeast UUG start: -8; MT1-MMP act inh: -2; MT1-MMP act inh RFP: -21
# O=C(CCCNC(=O)c1ccc(Cl)cc1)Nc1cccc(S(=O)(=O)N2CCCCC2)c1 is entered as Yeast UUG start: -10; MT1-MMP act inh: 0; MT1-MMP act inh RFP: -2

# The listing picks up, starting five compounds before the break.
# Every second line gives: Yeast UUG start | MT1-MMP act inh | MT1-MMP act inh RFP
6	COC(=O)[C@]1(C)N[C@H](CN(C)S(=O)(=O)c2ccc(-c3ccccc3)cc2)[C@@H]2C(=O)N(C)C(=O)[C@@H]21
  -25 | -2 | -2
7	Cc1n[nH]c(=O)c2c(NC(=O)CSc3cc(Cl)ccc3Cl)oc(C)c12
  -10 | 0 | 1
8	O=C1[C@H]2[C@@H](c3ccc(C(F)(F)F)cc3)N[C@]3(CCCN(Cc4ccc(Cl)cc4)C3=O)[C@H]2C(=O)N1Cc1ccccc1
  -8 | -2 | -21
9	Cc1cc(NC(=O)C(C)SCC(=O)Nc2cccc(S(=O)(=O)N3CCCCCC3)c2)no1 (stereo unspecified)
  -7 | 1 | -7
10	CCNC(=O)C1(C)CCCN(CCOc2ccc(Cl)cc2)C1 (stereo unspecified)
  -17 | -1 | 4
11	O=C(NCCCN1CCOCC1)C1CCN(S(=O)(=O)c2cccc(C(F)(F)F)c2)CC1
  -25 | -1 | 3
12	O=C(CSc1ccccc1)Nc1cccc(S(=O)(=O)N2CCCCC2)c1
  -8 | 6 | 0
13	O=C(NCCc1ccc(F)cc1)C1CCN(C(=O)Nc2ccccc2)CC1
  0 | -1 | 3
14	NC(=O)c1ccc(NC(=O)C2CC(=O)N(c3ccc4c(c3)OCCO4)C2)cc1 (stereo unspecified)
  -16 | 2 | 3
15	NC(=O)c1ccc(NC(=O)c2cc(S(=O)(=O)N3CCCCC3)ccc2N2CCOCC2)cc1
  -23 | -1 | 3
16	NS(=O)(=O)c1ccc(Cl)c(S(N)(=O)=O)c1
  -13 | 1 | 4
17	CCn1c(Cc2ccccc2)nnc1SCC(=O)c1c(N)n(C2CC2)c(=O)[nH]c1=O
  -43 | -1 | 0
18	Cc1ccc(-c2cnc(C(O)c3cccc(Cl)c3)[nH]2)cc1 (stereo unspecified)
  -14 | 6 | -1
19	COc1ccccc1NS(=O)(=O)c1cccc(C(=O)N/N=C/c2c(CO)cnc(C)c2O)c1
  -14 | 0 | 1
20	CC(Sc1n[nH]c(-c2cccs2)n1)C(=O)Nc1ccc(C(N)=O)cc1 (stereo unspecified)
  -6 | -4 | 4

# (further entries)
# Every second line gives: Yeast UUG start | MT1-MMP act inh | MT1-MMP act inh RFP
21	CCOC(=O)C1CCCN(C(=O)c2ccc(S(=O)(=O)N3CCOCC3)cc2)C1 (stereo unspecified)
  -5 | 4 | -3
22	CC12CCCC(C(C#N)C(N)=O)(C1)NC(=O)C2C#N (stereo unspecified)
  -9 | -2 | 4
23	CC(Oc1ccccc1)C(=O)OCC(=O)Nc1sccc1C(N)=O (stereo unspecified)
  -16 | 6 | -1
24	C[C@H](O)CNC(=O)c1[nH]cnc1C(=O)N[C@@H](C)c1ccccc1
  1 | -3 | -14
25	O=[N+]([O-])c1ccc(NN=C(C2CC2)C2CC2)c([N+](=O)[O-])c1
  -18 | 12 | 6
26	Cc1cccc(C=CC(=O)c2ccc(Cl)cc2)c1
  -17 | 3 | 0
27	CCN(CC(=O)Nc1ccc(NC(C)=O)cc1)C(=O)c1cc(-c2ccccc2Cl)nc2ccccc12
  3 | -12 | -1
28	Cc1cccc(S(=O)(=O)N(C)C[C@@H]2OCc3cn(nn3)CCCC(=O)N([C@H](C)CO)C[C@H]2C)c1
  -5&1 | 1 | 4
29	COc1ccccc1C(CNC(=O)c1ccc(NS(=O)(=O)c2ccc(C(C)=O)cc2)cc1)N1CCCC1 (stereo unspecified)
  -7 | 3 | 3
30	Cc1nn(-c2ccccc2)c(C)c1C(=O)OC(C)C(=O)NC1CCCCC1C (stereo unspecified)
  -5 | -6 | -23

# Additional records:
# Every second line gives: Yeast UUG start | MT1-MMP act inh | MT1-MMP act inh RFP
31	COc1cc(C(=O)N2CCN(c3ccccc3F)CC2)ccc1OCC(=O)N1CCOCC1
  -5 | 0 | 3
32	CN(c1ccccc1)S(=O)(=O)c1cccc(NC(=O)CCNC(=O)c2ccccc2)c1
  -6 | -1 | -6
33	CCC(=O)c1ccc(OCC(=O)N2CCN(C(=O)c3ccccc3)CC2)cc1
  -6 | -5 | -3
34	O=C(COC(=O)/C=C/c1cccc(Cl)c1)NC1CCCC1
  -6 | 1 | 1
35	Cc1nc(C(F)(F)F)ccc1C(=O)N1CCC1(C)C(=O)Nc1ccc2c(c1)OCO2 (stereo unspecified)
  -3 | 6 | 0
36	Cc1cnc(C(=O)OCC(=O)c2ccc(C)s2)cn1
  -3 | -2 | 3
37	COc1ccccc1S(=O)(=O)N(C)C[C@H]1OCc2cnnn2CCCC(=O)N([C@@H](C)CO)C[C@H]1C
  -9&7 | 4 | 5
38	CCOC(=O)c1cc2c(c(CCO)n1)[C@H](CCO)N(S(=O)(=O)C(C)(C)C)C2
  2 | 1 | 2
39	CC1CCN(C(=O)COC(=O)/C=C/c2ccc(Br)o2)CC1
  -21 | -3 | 3
40	O=C(NC1CCN(Cc2ccccc2)CC1)c1cccc(NS(=O)(=O)c2ccc(Br)cc2)c1
  -4 | 0 | -11

# Next section.
# Every second line gives: Yeast UUG start | MT1-MMP act inh | MT1-MMP act inh RFP
41	COc1cccc(CCC(=O)Nc2cccc(S(=O)(=O)N3CCCC3)c2)c1OC
  6 | 2 | 0
42	Cc1ccc(S(=O)(=O)N2C[C@H]3C(=O)C[C@@H](c4cccs4)N(S(=O)(=O)c4ccc(C)cc4)[C@H]3C[C@H]2c2ccccc2)cc1
  -20 | 2 | -1
43	CC(C)=CCC[C@H](C)C[C@@H]1CC2=C(C(=O)OC(C)(C)O2)[C@H](c2ccc(F)cc2)O1
  -6 | -3 | -5
44	C=CC[C@@H](Cc1ccc(F)cc1)C(=O)OC[C@H]1CCCN1C(=O)[C@H](CC=C)CC(=O)N(CCO)Cc1ccccc1
  -10 | -6 | -12
45	Cc1ccc(OCCN2CCC2(C)C(=O)NCc2cccc3ccccc23)cc1 (stereo unspecified)
  14 | 1 | -5
46	CCOC1=C2[C@@H](CN(S(=O)(=O)c3ccc(C)cc3)[C@H]2c2cccs2)[C@H]2C(=O)N(c3ccccc3)C(=O)[C@H]2C1
  -8 | 0 | 2
47	COc1ccc(-c2sc3cc4c(cc3c2-c2ccc(OCCN3CCCCC3)cc2)OCO4)cc1
  -8 | -3 | -8
48	COc1cccc(NC(=O)CN(C)C(=O)c2c(C)noc2C)c1
  -6 | 1 | 4
49	Nn1c(SCC(=O)Nc2cccnc2Cl)nnc1-c1ccccc1
  4 | -4 | 2
50	CCC(C)N(C(=O)CSc1ncnc2sccc12)C1CCS(=O)(=O)C1 (stereo unspecified)
  -1 | -1 | 2

# Carrying on.
# Every second line gives: Yeast UUG start | MT1-MMP act inh | MT1-MMP act inh RFP
51	O=C(COC(=O)c1ccc2ncsc2c1)NCc1cccc(Cl)c1
  -15 | -4 | 3
52	O=C(Cn1cnc2ccccc2c1=O)N1CCN(S(=O)(=O)c2ccc(F)cc2)CC1
  -14 | 2 | 1
53	COc1cccc(-c2cnc(C(O)c3cc(C)c(OC)c(C)c3)[nH]2)c1 (stereo unspecified)
  -6 | 4 | -3
54	Cc1ccc(CNC(=O)[C@H]2O[C@@H](n3ccc(N)nc3=O)[C@H](O)[C@@H]2O)o1
  -11 | 1 | 0
55	O=C(C1=C(O)C(=O)N(c2nc3ccc(Cl)cc3s2)C1c1ccco1)c1ccco1 (stereo unspecified)
  -11 | 0 | 2
56	C[C@H](CO)N1C[C@H](C)[C@@H](CN(C)S(=O)(=O)c2cccc(C#N)c2)OCc2cnnn2CCCC1=O
  -9&-7 | -2 | 0
57	Cc1ccc(-c2csc(NC(=O)c3c(C)noc3C)n2)cc1
  0 | 11 | -13
58	O=C(c1ccc(S(=O)(=O)Nc2ccccc2F)cc1)N1CCN(c2ccccn2)CC1
  21 | 0 | 1
59	CC(=O)c1ccc(OCCCC(=O)Nc2cccc(S(=O)(=O)N3CCCCC3)c2)cc1
  -9 | 5 | -15
60	CN1CCN(C(=O)c2cccc(NS(=O)(=O)c3ccc(Br)cc3)c2)CC1
  -2 | 1 | 3

# The closing 6 entries of the section above open the next one.
# Every second line gives: Yeast UUG start | MT1-MMP act inh | MT1-MMP act inh RFP
55	O=C(C1=C(O)C(=O)N(c2nc3ccc(Cl)cc3s2)C1c1ccco1)c1ccco1 (stereo unspecified)
  -11 | 0 | 2
56	C[C@H](CO)N1C[C@H](C)[C@@H](CN(C)S(=O)(=O)c2cccc(C#N)c2)OCc2cnnn2CCCC1=O
  -9&-7 | -2 | 0
57	Cc1ccc(-c2csc(NC(=O)c3c(C)noc3C)n2)cc1
  0 | 11 | -13
58	O=C(c1ccc(S(=O)(=O)Nc2ccccc2F)cc1)N1CCN(c2ccccn2)CC1
  21 | 0 | 1
59	CC(=O)c1ccc(OCCCC(=O)Nc2cccc(S(=O)(=O)N3CCCCC3)c2)cc1
  -9 | 5 | -15
60	CN1CCN(C(=O)c2cccc(NS(=O)(=O)c3ccc(Br)cc3)c2)CC1
  -2 | 1 | 3
61	O=C1C=C(c2ccc(CO)cc2)C[C@@H](c2ccc(F)cc2)C1
  5 | 3 | 4
62	CCCCn1c(N)c(N(CCOC)C(=O)C2CC(=O)N(Cc3ccco3)C2)c(=O)[nH]c1=O (stereo unspecified)
  -11 | -3 | 1
63	Cc1c(NS(=O)(=O)c2cccc(C(=O)NC(C)c3ccccc3)c2)c(=O)n(-c2ccccc2)n1C (stereo unspecified)
  -6 | -4 | 0
64	Nc1nc(SCc2ccc(Cl)cc2Cl)c2ncn(C3OC(CO)C(O)C3O)c2n1 (stereo unspecified)
  -2 | 3 | 0
65	CC(NC(=O)c1cccc(S(=O)(=O)N2CCCCCC2)c1)c1ccccc1 (stereo unspecified)
  6 | 1 | 0
66	COC(=O)c1ccccc1S(=O)(=O)N1CCC(C(=O)OC(C)C(=O)N(C)Cc2ccccc2)CC1 (stereo unspecified)
  -14 | 5 | -4
67	CCOC(=O)C1CCCN(C(=O)Cn2ncc3c(=O)oc4ccc(C)cc4c32)C1 (stereo unspecified)
  -17 | 1 | 3
68	COc1ccc(S(=O)(=O)N2CCOCC2)cc1C(=O)NCc1c(C)nn(Cc2ccccc2)c1C
  -9 | 1 | -1
69	Cc1ccc(C(=O)OCC(=O)Nc2ccc(C(N)=O)cc2)s1
  -9 | -2 | 1
70	CCOC(=O)C1(C)CCN1C(=O)c1ccccc1Br (stereo unspecified)
  -4 | 5 | 4

# Additional structures follow:
# Every second line gives: Yeast UUG start | MT1-MMP act inh | MT1-MMP act inh RFP
71	Cc1cc(C(=O)COC(=O)c2ccc(O)cc2O)c(C)n1-c1ccc(OC(F)F)cc1
  -10 | -8 | -24
72	CCc1ccccc1OCC(=O)Nc1cccc(S(=O)(=O)NCc2ccco2)c1
  -3 | 2 | -5
73	COc1cccc(NC(=O)C2(C)CCN2C(=O)CCc2ccc(Cl)cc2Cl)c1 (stereo unspecified)
  1 | 0 | -6
74	Oc1ccccc1-c1nnco1
  -22 | 2 | 3
75	O=C(Nc1ccc(Cl)c(S(=O)(=O)N2CCOCC2)c1)c1n[nH]c(=O)c2ccccc12
  -6 | 2 | -2
76	Cc1cc(OCc2cccc(S(=O)(=O)N3CCOCC3)c2)ccc1Cl
  1 | 5 | -3

# Screening data as filed in PubChem BioAssay.
